Screening data deposited in PubChem by National Center for Advancing Translational Sciences (NCATS).
Vaccinia mCherry: inhibitors of vaccinia virus infection (mCherry reporter signal); AID 720579; Vaccinia virus mCherry reporter infection, fluorescence; about a quarter of the inactives have no number; Potency, µM (highest dose often 36.5 µM), without a hit: at the top dose activity change, negative = inhibition, actives largely listed as inhibitors; 0.63% of 310,000 active; active = well fitted inhibition curve with a large enough effect; inconclusive = small, poorly fitted or top-dose-only effect; inactive = no such curve, though single readings can be large or run the other way; tested in A549 cells; note: nearly all actives have a fitted effect of over 35% in size; inactives centre near -10
VACV Venus inh: inhibitors of vaccinia virus (Venus reporter). Vaccinia virus Venus reporter expression, fluorescence. Potency, µM (top dose mostly 36.5 µM), inactives show top-dose activity change, negative = inhibition, actives largely listed as inhibitors. 0.46% of 330,000 active. AID 720580; active means well fitted inhibition curve with a large enough effect; inconclusive means small, poorly fitted or top-dose-only effect; inactive means no such curve, though single readings can be large or run the other way; tested in A549 cells; note: nearly all actives have a fitted effect of over 30% in size; inactives centre near -10
* hit, by the source's call; i = inactive; ? = inconclusive; . = not tested or not shown; & = joins results of further samples; [ ] = another dose, or the depositor's remark. % is set by controls: 0 for no effect and ±100 for the full control effect; potency is the fitted concentration of half-maximal effect.

structure	Vaccinia mCherry	VACV Venus inh
O=C(Nc1cc(S(=O)(=O)N2CCOCC2)ccc1OCC(F)(F)F)C1=COCCO1	3%	3%
COc1cc(Cl)c(NS(=O)(=O)c2cc(-c3cc(C)no3)ccc2OC)c(OC)c1	-14%	-15%
CCC1CCc2c([nH]c3ccccc3c2=O)O1 (stereo not given)	-21%	-16%
O=C(NCC1CCCO1)c1onc(CSc2ccc(F)cc2)c1C(=O)O (stereo not given)	i	-11%
Cc1ccccc1N	i	-11%
CCC(C)(C(=O)NC1CCCCC1)N(Cc1cccs1)C(=O)CC1NC(=O)NC1=O (stereo not given)	i	-12%
Cc1cc(C)c2oc(C(=O)Nc3c(C)n(C)n(-c4ccccc4)c3=O)cc(=O)c2c1	3%	7%
CCC(=O)N1CCc2cc(S(=O)(=O)NCCC(=O)Nc3ccc(OC)c(OC)c3)ccc21	-14%	-9%
CC1CC(=S)Nc2ccccc2N1C(=O)Nc1ccccc1 (stereo not given)	-6%	-10%
C/[N+]([O-])=C\CC(=O)c1ccc(-c2ccccc2)cc1	-2%	5%
CCN1CCN(CC(=O)NC2CCCC2)C(=O)C1=O	i	-10%
CN(C(=O)CSc1ncnc2sccc12)C1CCCCC1	-2%	-14%
CCN(CC)c1ccc(/C=C2\C(=O)NC(=O)N(Cc3ccco3)C2=O)cc1	i	14%
O=C(Cn1cc(COc2ccc(Cl)c(Cl)c2)nn1)NS(=O)(=O)c1ccccc1C(F)(F)F	-6%	-3%
Cn1c(NCCCO)nc2c(c1=O)C1(CCCCC1)Cc1ccccc1-2	.	-18%
CCOC(=O)c1sc(NC(=O)c2ccccc2OCC)nc1C	i	-8%
COc1cc(O)ccc1C1CC(=O)Nc2c1c(=O)nc(SCc1ccccc1C)n2C (stereo not given)	-1%	-9%
O=C(CSc1cn(CCNC(=O)c2c(F)cccc2F)c2ccccc12)Nc1ccccc1F	0%	3%
Cn1nccc1C(=O)NC(=S)Nc1sc2c(c1C#N)CCCCC2	-9%	-9%
CCCCC(CC)CNC(=O)C1CCC(CNS(=O)(=O)c2cccc3nsnc23)CC1 (stereo not given)	-17%	-1%
O=C(CN(C(=O)CNC(=O)c1ccco1)c1ccc(Cl)c(Cl)c1)NC1CCCCC1	-3%	-20%
CCN1CCN(C(=S)Nc2ccccc2Cl)CC1	?	-25%
C=CCc1ccc(OCC(O)COCC)c(OC)c1 (stereo not given)	.	-13%
CCn1c(SCC(=O)N(C)C2CCS(=O)(=O)C2)nnc1-c1cccs1 (stereo not given)	-8%	-7%
O=C(Nc1ccc(NC(=O)c2sc3ccccc3c2Cl)cc1Cl)c1ccco1	-30%	-16%
CCC(=O)c1ccc(OCc2ccc(C(=O)OC)o2)c(OC)c1	.	-12%
CC(C)CN(CCCNC(=O)c1cn(C)c2ccc(S(=O)(=O)N(C)C3CCCCC3)cc2c1=O)CC(C)C	-9%	-1%
COCCN(CCOC)S(=O)(=O)c1ccc(C(=O)Nc2ccc([N+](=O)[O-])cc2OC)cc1	-4%	-11%
CCCC(=O)OCc1cnc(C)c2oc(=O)c(C(=O)Nc3cccc(C(F)(F)F)c3)cc12	-13%	-5%
COCc1cc(C)nc2sc(C(=O)Nc3cc(C)ccc3F)c(N)c12	?	-10%
CSc1ccccc1C(=O)Nc1ncc(C)s1	?	-19%
COc1ccc(OCCNC(=O)c2cc(C3CC3)nc3c2cnn3C(C)C)cc1	-25%	-12%
OC(c1ccc(-c2ccccc2)cc1)c1ncc(-c2ccccc2F)[nH]1 (stereo not given)	i	0%
COc1ccc(Nc2c(-c3ccc(C)o3)nc3ccc(Cl)cn23)cc1	-2%	2%
CC(C)=CCCC(C)=CCN1C(=O)CN(C)C1=O	i	-9%
O=C(CSc1nc(O)c(Cc2ccccc2)c(=O)[nH]1)c1ccccc1	-26%	-15%
CC(C)Cc1cc(C(=O)Nc2ccc(F)cc2F)no1	0%	4%
Cc1ccc(SCCNC(=O)/C=C/c2ccc([N+](=O)[O-])cc2)cc1	-15%	-3%
O=C(c1ccc(CS(=O)c2cccc(Cl)c2)o1)N1CCN(C2CCCCC2)CC1 (stereo not given)	3%[7.34 µM]	2%[7.34 µM]
Cc1cccc(Cn2c(=O)n(-c3ccccc3C)c(=O)c3c2c2cc(C)ccc2n3C)c1	-15%	-3%
COc1ccccc1C(=O)NCCSCc1ccccc1Cl	-6%	-19%
CCN1CCN(CCCNC(=O)CS(=O)(=O)Cc2nc(-c3cccc(OC)c3)oc2C)CC1	-1%&-18%	-12%&-12%
Cc1ccccc1OCc1nnc(SCCN2CCCC2)n1-c1ccccc1	-16%	-8%
COc1cc(CN2c3ccccc3C(=O)CS2(=O)=O)cc(OC)c1	i	-5%
N#Cc1c(N2CCN(C(=O)c3ccccc3)CC2)nc(-c2ccccc2)c2c1CCCC2	.	?
CC(C)c1cccc(-c2ccc3c(c2)S(=O)(=O)c2cccc(C(=O)NC4CCCC4)c2C3=O)c1	-22%	-20%
N=c1c2c(-c3ccccc3)c(-c3ccccc3)oc2ncn1Cc1ccco1	-25%	-22%
CCN(CC(=O)Nc1ccc2c(c1)OCCO2)C(=O)COc1cc(C)ccc1Cl	i	-1%
COc1ccc(-n2nc(C(=O)NCCc3ccc(Cl)cc3)c3c4ccccc4n(C)c3c2=O)cc1Cl	-1%	10%
Cc1cccc(C(=O)NCC(=O)NCCCSc2ccccc2)c1	-1%	-13%
Clc1ccc(C2=NNC(=NCC3CCCO3)SC2)cc1 (stereo not given)	-26%	-14%
O=C(c1cccs1)N(Cc1ccco1)c1ccc(O)cc1	2%	-14%
O=C(CSc1nc(-c2ccccc2Cl)ns1)c1ccc(Cl)cc1	i	-21%
CCOC(=O)c1[nH]c2ccc(OC)cc2c1NC(=O)CCN1CCCC(C)C1 (stereo not given)	.	-12%
CCOC(=O)N1CCN(C(=O)COC(=O)c2ccc(S(=O)(=O)N(CC)CC)cc2)CC1	-10%	-3%
Cc1ccc(/C=N/NC(=O)CCn2nc(C)cc2C)c(C)c1	?	-25%
Cn1c(=O)c2c(c3ccccc31)OC(=O)CC2c1ccc(C(F)(F)F)cc1 (stereo not given)	-1%	-14%
O=c1[nH]c(C2CCN(S(=O)(=O)Cc3ccccc3)CC2)nc2c1nnn2Cc1cccc(Cl)c1	-19%	-6%
COc1ccc(C(C)=O)cc1CSc1ccc2c(c1)OCCO2	0%	-17%
c1ccn2c(SCc3ccc4c(c3)OCO4)nnc2c1	.	-9%

(continued)
structure	Vaccinia mCherry	VACV Venus inh
Cn1c(N)c(C(=O)c2cc(-c3ccccn3)nc3ccccc23)c(=O)[nH]c1=O	-15%	-5%
Cc1ccsc1C(=O)OCC(=O)NC1CC1	-8%	-10%
O=C(NCc1ccccc1)c1ccc2c(c1)C(=O)N(Cc1cccnc1)C2=O	-12%	3%
CC(Sc1nnnn1C)C(=O)Nc1ccc2c(c1)OCCO2 (stereo not given)	-8%	1%
CCNC(=O)c1nc[nH]c1C(=O)NCC	.	-7%
COc1ccccc1OC(C)C(=O)N(Cc1ccco1)C1CCS(=O)(=O)C1 (stereo not given)	i	-15%
Cc1ccc(/C=N/n2nnnc2N)cc1	-2%	-3%
Cc1cc(F)ccc1S(=O)(=O)N1CCCOC1CNC(=O)C(=O)NCc1cccnc1 (stereo not given)	-11%	-8%
COc1ccc(/C=N/N2CCN(C3c4ccccc4-c4ccccc43)CC2)cc1O	-13%	-18%
Cc1cc(=O)[nH]c(SCc2cc(Cl)ccc2OC(F)F)n1	-9%	-13%
CCC(C)NCCOCCOc1ccc(Br)cc1C (stereo not given)	-6%	-17%
O=C(CCN1CCOCC1)c1ccccc1	-25%	-12%

Complete entries as entered above:
CCNC(=O)c1nc[nH]c1C(=O)NCC across the screens: Vaccinia mCherry = .; VACV Venus inh = -7%
Cn1c(N)c(C(=O)c2cc(-c3ccccn3)nc3ccccc23)c(=O)[nH]c1=O across the screens: Vaccinia mCherry = -15%; VACV Venus inh = -5%

The listing continues.
structure	Vaccinia mCherry	VACV Venus inh
O=C(NCc1ccc2c(c1)OCO2)c1[nH]c(C(F)(F)F)nc1-c1ccccc1	16%	-5%
O=C1/C(=C\c2ccc([N+](=O)[O-])cc2)N2CCC1CC2	-7%	2%
O=C(CSc1cccc(C(F)(F)F)c1)NC(=O)NCc1ccco1	-17%	-11%
CCN(c1ccccc1)S(=O)(=O)c1ccc(C(=O)Nc2ccncc2)cc1	-11%	-24%
COCCOc1nc2ccccc2nc1C	-12%	-10%
Cc1cc(C(=O)CN2C(=O)C(=O)N(C3CCCC3)C2=O)c(C)n1CCc1ccccc1	-1%	-11%
CCN(CC)S(=O)(=O)c1ccc(N2CCCC2)c(NC(=O)CC(C)(C)C)c1	?	-5%
Cc1cccc[n+]1CC(=O)N1c2ccccc2Sc2ccccc21	?	2%
COc1ccc(C(=O)Nc2c(C(=O)c3ccc(F)cc3)oc3ccccc23)cc1	-9%	-3%
CC(=O)OC1C(OC(C)=O)C2C(C)CC3OC(=O)C(C)C3CC2(C)C1OC(C)=O (stereo not given)	i	-3%
CCOc1ccccc1C(=O)Nc1ccsc1C(=O)OC	i	?
c1coc(CNc2nc3ccccc3s2)c1	-23%	-19%
CC(C)(O)C#Cc1ccc(C(=O)N2CCN(c3ccc([N+](=O)[O-])cc3)CC2)cc1	-25%	-27%
N#Cc1ccc(OCc2nnc3n2CCCCC3)cc1	i	-17%
CCOc1ccc2nc(Cl)c(CN(C(=O)c3cnccn3)C3CCCC3)cc2c1	i	-7%
CCOc1ccc(-c2nc(SCC(=O)c3ccccc3)n[nH]2)cc1	-18%	-20%
C=CCn1c(C)cc(C(=O)CSc2nnc(NC(C)C)s2)c1C	.	-12%
O=C(N/N=C/c1ccc(OC(=O)c2cccs2)cc1)c1ccccn1	-10%	-3%
COC(=O)CCCNC(=O)c1ccc(OC2CCN(CCc3ccccc3)CC2)cc1	?	-11%
COc1ccc(CC(=O)Nc2c3c(nn2-c2cccc(C)c2C)CS(=O)C3)cc1 (stereo not given)	-18%	-4%
C=C1C(=O)OC2C1CCC(C)C1C=CC(=O)C12C (stereo not given)	11µM*	?
CC(=O)N1N=C2C3CCN(CC3)C2C1c1ccc(F)cc1 (stereo not given)	-8%	6%
Cc1onc(-c2ccccc2Cl)c1C(=O)N1CCN(c2nc3ccccc3s2)CC1	?	?
CN(/C(=N/S(=O)(=O)c1cccs1)c1ccccc1)c1ccccc1	i	-12%
CCOC(=O)Cc1ccc(NC(=O)NCc2ccc3c(c2)CCN3C(=O)CC)cc1	-17%	-6%
O=C(O)CNC(=O)C1(N2C(=O)c3ccccc3C2=O)CCCC1	-13%	-8%
COc1cc2c(cc1OC)C(C(=O)Nc1ccc3c(c1)OCCO3)C(c1cccnc1)N(C)C2=O (stereo not given)	-21%	-13%
O=C(Nc1ccc(Cl)cn1)C1C(c2ccccc2)C1(Cl)Cl (stereo not given)	-7%	7%
CN(C1CCCCC1)S(=O)(=O)c1cccc(C(=O)OCC(=O)NC2CCCc3ccccc32)c1 (stereo not given)	-10%	-5%
COc1cc2c(=O)n(CCCN3CCOCC3)c(=S)[nH]c2c(OC)c1OC	-21%	-16%
CCCCN(CCCNC(=O)CN1N=C(c2ccccc2)CCC1=O)c1ccccc1	-11%	-17%
COc1cc(/C=N/NC(=O)CSc2ccccn2)ccc1OC(C)C	-15%	-7%
COc1ccc(NC(=O)CN(C)C(=O)/C=C/c2ccc(S(=O)(=O)N3CCCCCC3)cc2)cc1	-13%	-27%
Cc1ccc(OC(C)C(=O)NCC2(N3CCOCC3)CCCCC2)cc1C (stereo not given)	i	-5%
C=CCNC(=O)C12CC3(C)CC(C)(CC(C)(C3)C1)C2	.	-16%
Cc1ccc(S(=O)(=O)N2[C@@H](c3ccc(Cl)c(Cl)c3)C(C(=O)O)=C[C@H]2CC2CCCC2)cc1	-3%	0%

Exported field by field: entries from further up.
> Cn1c(N)c(C(=O)c2cc(-c3ccccn3)nc3ccccc23)c(=O)[nH]c1=O
  Vaccinia mCherry: -15%	VACV Venus inh: -5%
> Cc1ccsc1C(=O)OCC(=O)NC1CC1
  Vaccinia mCherry: -8%	VACV Venus inh: -10%

(cont.)
structure	Vaccinia mCherry	VACV Venus inh
Cc1ccc(S(=O)(=O)NC(=NC2CCCCC2)c2ccccc2)cc1	-25%	-5%
Oc1ccc(Cl)cc1C1=NNC(c2ccc(Cl)cc2)C1 (stereo not given)	-10%	-25%
O=C(NCCOc1ccc(Cl)cc1)C1CCCCC1	i	-24%
COc1ccccc1CNC(=O)CCCC(=O)n1nc(C)c2ccccc21	i	-11%
CCN(CC)C(=O)C1c2ccccc2Oc2ccccc21	-2%	-13%
Cc1nn(-c2ccccc2)c(Oc2ccc(F)cc2)c1/C=N/n1cnnc1	-2%	-21%
O=c1[nH][nH]c(C(F)(F)F)c1C=NCc1ccc(Cl)cc1	-22%	-12%
CCOC(=O)C(C(=O)NCCCN1CCOCC1)C1CCCCC1 (stereo not given)	-6%	7%
